# TRPV1 PAM = human TRPV1 potentiation | Q8NER1 | TRPV1-expressing cells, Fluo-8 calcium influx, capsaicin EC20 potentiation; host cell line not named in the record; control for the full effect not named in the record | potentiation, % at 8.33 µM | hit rate 0.02% among 320,000; active means potentiation above 80%; inconclusive means 30% to 80%; inactive means below 30%; also: 0% is about no effect
# Target sequence (Q8NER1 whole entry, looked up): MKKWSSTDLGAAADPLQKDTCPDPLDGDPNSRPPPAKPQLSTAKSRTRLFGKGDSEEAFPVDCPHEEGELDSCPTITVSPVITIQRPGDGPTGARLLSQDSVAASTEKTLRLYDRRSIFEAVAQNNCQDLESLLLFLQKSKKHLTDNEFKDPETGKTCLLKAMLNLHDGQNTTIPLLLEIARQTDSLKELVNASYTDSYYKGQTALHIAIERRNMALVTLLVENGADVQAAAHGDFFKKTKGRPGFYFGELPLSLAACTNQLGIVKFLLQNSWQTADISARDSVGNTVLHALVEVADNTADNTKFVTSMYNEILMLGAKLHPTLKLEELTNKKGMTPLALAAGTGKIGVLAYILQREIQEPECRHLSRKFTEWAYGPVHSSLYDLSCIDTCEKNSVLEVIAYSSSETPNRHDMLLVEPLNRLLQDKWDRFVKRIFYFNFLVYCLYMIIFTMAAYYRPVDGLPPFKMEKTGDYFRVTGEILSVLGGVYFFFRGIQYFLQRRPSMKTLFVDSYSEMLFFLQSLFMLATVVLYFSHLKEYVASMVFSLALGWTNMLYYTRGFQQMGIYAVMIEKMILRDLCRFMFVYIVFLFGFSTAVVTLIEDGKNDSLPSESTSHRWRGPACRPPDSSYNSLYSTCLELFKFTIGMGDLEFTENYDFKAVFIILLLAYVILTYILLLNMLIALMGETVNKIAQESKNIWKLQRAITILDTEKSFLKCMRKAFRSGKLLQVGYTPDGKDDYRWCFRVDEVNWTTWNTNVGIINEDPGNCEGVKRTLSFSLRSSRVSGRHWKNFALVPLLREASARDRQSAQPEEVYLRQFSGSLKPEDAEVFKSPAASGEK
#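 Cells expressing TRPV1 were dye-loaded with Fluo-8 and read kinetically: 10 s baseline, 3 min after compound (agonist portion), then 2 min after EC20 capsaicin (allosteric enhancer portion). Calcium-bound dye fluorescence at 480/520 nm.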
# D2 PAM = potentiates the human D2 dopamine receptor allosterically; P14416; DiscoveRx D2 beta-arrestin cells, luminescence, 90 min; 100% = 57 uM dopamine signal; potentiation, % (no concentration beside the values); hit rate 0.23% among 360,000; AID 624464; active = potentiation of 50% or more; inconclusive = 30% to 50%; inactive = 30% or less;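 also: compound concentration not given in the record; tested on top of an EC20 dose of dopamine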
#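 PathHunter D2 cells, attached overnight at 37 deg C, received compound in DMSO plus dopamine at EC20 (50 nM final) for 90 min at 37 deg C. Beta-arrestin recruitment was read as luminescence after 1 h with detection reagent at ambient temperature.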
# D2 agonist = activates the human D2 dopamine receptor; activation, % (concentration not given with the values); P14416; hit rate 0.084% among 360,000; DiscoveRx PathHunter D2 beta-arrestin, luminescence, 90 min; 100% = 57 uM dopamine signal; AID 624465; in the data active = activation above about 40%; inconclusive = about 15% to 40%; inactive = below about 15%; also: compound concentration not given in the record; the text of the record calls up to 30% inactive
#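 Agonist mode: compounds alone added to overnight-plated D2 PathHunter cells for 90 min at 37 C, with 57 uM final dopamine (EC100) defining full response. Beta-arrestin recruitment detected by chemiluminescent reagent, read after 1 h at ambient temperature.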
# CtBP-E1A inh = CtBP/E1A binding inhibition; AlphaScreen GST-E1A/His-CtBP binding, 1536-well; active compounds read low; control for the full effect not named in the record; activity change, % (concentration not given with the values); hit rate 0.49% among 340,000; in the data active means activity change below about -65%; inconclusive means about -30% to -65%; inactive means above about -30%; also: % is scaled to controls: 0 for no effect and ±100 for the full control effect
#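 GST-E1A and His-tagged CtBP (125 nM each as 5X stock) were preincubated with pin-transferred compound for 2 h at 37 °C in the dark, then glutathione donor and nickel acceptor beads were added for 1 h before AlphaScreen reading.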
# Six1-Eya2 blk = blocks human Six1 binding to Eya2. activity change, % (test concentration not listed). AlphaScreen GST-Six1/His-Eya2 binding, biochemical; active compounds read low; control for the full effect not named in the record. Q15475+O00167. hit rate 0.56% among 360,000. AID 651725; in the data active = activity change below about -65%; inconclusive = about -30% to -65%; inactive = above about -30%; also: % is scaled to controls: 0 for no effect and ±100 for the full control effect
#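 Homogeneous AlphaScreen proximity assay pairing GST-Six1 with His-tagged Eya2 (added as 5X mix: 250 nM and 500 nM) in 50 mM Tris pH 8.0, 300 mM NaCl, 1 mM TCEP. Glutathione donor and nickel acceptor beads; 1 h, 37 °C, dark.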
# PINK1 modulator = changes PINK1 expression; AID 624263; Potency, µM (titrated, usually from 76.6 µM), for the others: at the highest dose activation (PINK1 increase), actives largely listed as activators; PINK1 immunofluorescence, high-content cytometry, 24 h; hit rate 0.2% among 410,000; active = well fitted activation curve with a large enough effect; inconclusive = small, poorly fitted or top-dose-only effect; inactive = flat fitted curve, though single readings scatter; cell line not stated here;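 also: potency is read from the fitted curve at half-maximal effect; % of control where 0% means no effect; nearly all actives have a fitted effect of over 65% in size; a mitochondrial uncoupler was the plate control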
#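 A stable cell line was treated with compounds at 5 concentrations for 24 hours, with CCCP as control. PINK1 levels and mitochondrial localization were measured by immunofluorescence with mitochondrial, cell and nuclear markers after fixation, read by laser-scanning cytometry.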
# Sfp PPTase inh = Sfp phosphopantetheinyl transferase inhibition | hit rate 3.5% among 310,000 | Biochemical Sfp PPTase activity, qHTS | Q9F4F7 | Potency, µM, inactives show max response, negative = inhibition, most hits filed as inhibitors | AID 1490; active = well fitted inhibition curve with a large enough effect; inconclusive = small, poorly fitted or top-dose-only effect, or another doubt; inactive = no such curve, though single readings can be large or run the other way;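 also: the enzyme is Sfp with the accession as filed and its product quenches rhodamine fluorescence; potency is read from the fitted curve at half-maximal effect; 0% = enzyme reaction without inhibitor and -100% = no enzyme wells; top concentration of the series not given in the record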
#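 After 15 min at room temperature with compound, 15 nM Sfp received 5 uM rhodamine-CoA plus 12.5 uM BHQ-2-ybbR (50 mM Hepes pH 7.6, 10 mM MgCl2). Rate came from the fluorescence difference over 30 min, ex 525/em 598 nm.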
# * = called active by the depositor; ? = inconclusive; · = no result given; & = joins results of further samples; [ ] = dose if it differs, or a comment.
SMILES,TRPV1 PAM,D2 PAM,D2 agonist,CtBP-E1A inh,Six1-Eya2 blk,PINK1 modulator,Sfp PPTase inh
C=CCNC(=O)c1ccccc1NC(=O)c1ccc(Cl)c(S(=O)(=O)Nc2ccccc2)c1,3,-18,1.3,-6,0,?,9%
Cc1ccnc2nc(C(=O)N3CCN(S(=O)(=O)c4ccccc4)CC3)nn12,7,-14,0.5,-9,0,1.6%,12%
CCOc1ccc2[nH]cc(-c3csc(N)n3)c2c1,-6,-3,?,·,?,1.1%,1%
O=[N+]([O-])c1cccc(SSc2cccc([N+](=O)[O-])c2)c1,·,-16,-5.8,-5,-3,1.7%,·
O=C(N/N=C/c1c[nH]c2ccccc12)C1CC1c1ccccc1 (stereo not given),10,-21,-2.9,5,-15,-3.3%,17%
O=C(CCCC(=O)OCC1CCCO1)OCC1CCCO1 (stereo not given),17,11,-2.4,-3,7,3.1%,15%
COc1ccc(N2CCN(C(=O)CN3C(=O)NC4(CCCCCC4)C3=O)CC2)cc1,-9,-2,-4.0,-4,1,0.3%,·
Cc1cccc(CSc2cn(CC(=O)N3CCOCC3)c3ccccc23)c1,-12,-7,-1.2,-1,-5,4.4%&0.1%,-7%
O=C(C1CCC1)N1CCc2cc(S(=O)(=O)Nc3ccc4c(c3)OCO4)ccc21,6,18,4.8,-5,-20,-0.6%,1%
Cc1ccn(CCNC(=O)C2CCC(=O)N(Cc3ccc(Cl)cc3)C2)n1 (stereo not given),1,2,-3.3,0,12,?,8%
COCc1c(C(=O)N2CCN(Cc3c(F)cccc3Cl)CC2)oc2ccccc12,-12,-1,0.6,1,-7,1.9%,-2%
CC(OC(=O)C1=COCCO1)C(=O)Nc1ccccc1C#N (stereo not given),8,0,-3.5,-5,1,-0.1%,26%
Cc1cc(N2CCN(c3nc(-c4ccc([N+](=O)[O-])cc4)cs3)CC2)c2ccccc2n1,7,2,-7.2,12,6,-0.8%,-10%
Cc1ccc(S(=O)(=O)N2CCOCC2)cc1C(=O)Nc1ccc2c(c1)CCC2,-25,-11,-0.7,16,1,0.9%,-4%
COc1ccc(CNC(=O)c2cc(-c3ccco3)on2)cc1,-21,-6,-1.0,4,2,1.4%[38.3 µM],4%
COc1ccc(CCNC(=O)COC(=O)C2CC2C)cc1 (stereo not given),-8,-14,-6.7,4,3,-0.2%,·
C/C(CC(=O)Nc1cccc(C(F)(F)F)c1)=N\NC(=O)C(=O)NCC(C)C,2,5,-0.8,1,3,2.4%,26%
Cc1ccc(-c2c[n+](Cc3cccc(Cl)c3)c3n2CCC3)cc1,4,-13,-4.2,9,0,2.0%,4%
COc1ccc(OCC(=O)OCC(=O)NCc2ccco2)cc1,1,-5,-4.1,3,1,2.9%,15%
CC(C)c1ccccc1N1CC(C(=O)O)CC1=O (stereo not given),2,6,0.1,2,7,1.2%,0%

# Single records (already shown):
# Profile of `COc1ccc(CCNC(=O)COC(=O)C2CC2C)cc1` (stereo not given) = TRPV1 PAM: -8; D2 PAM: -14; D2 agonist: -6.7; CtBP-E1A inh: 4; Six1-Eya2 blk: 3; PINK1 modulator: -0.2%; Sfp PPTase inh: ·
# Profile of `C/C(CC(=O)Nc1cccc(C(F)(F)F)c1)=N\NC(=O)C(=O)NCC(C)C` = TRPV1 PAM: 2; D2 PAM: 5; D2 agonist: -0.8; CtBP-E1A inh: 1; Six1-Eya2 blk: 3; PINK1 modulator: 2.4%; Sfp PPTase inh: 26%

# (list continues)
SMILES,TRPV1 PAM,D2 PAM,D2 agonist,CtBP-E1A inh,Six1-Eya2 blk,PINK1 modulator,Sfp PPTase inh
O=C(NCCN1CCN(c2ccccc2F)CC1)c1cccn2c(=O)c3ccccc3nc12,-9,-8,-1.0,-3,-4,1.8%[38.3 µM],0%
COCCNC(=S)Nc1ccc(N2CCOCC2)c(S(=O)(=O)Nc2ccccc2OC)c1,22,-3,-3.0,3,-7,2.4%,·
Cc1cc(C)c(S(=O)(=O)N2CCOC2CNC(=O)C(=O)NCCN2CCOCC2)c(C)c1 (stereo not given),-13,10,4.9,-1,10,0.8%,-3%
O=C(NC(=S)NCC1CCCO1)c1ccc(Br)o1 (stereo not given),-28,-1,6.1,3,-1,-0.6%,2%
Fc1ccc(Cn2c(SCc3ccc(F)c(C(F)(F)F)c3)nnc2C(F)(F)F)cc1,·,-8,-4.4,33,29,8.2%[38.3 µM],17%
COc1ccc(C(=O)Nn2c(C)nc3ccccc3c2=O)c(OC)c1,0,-4,-1.9,·,1,1.0%,12%
COc1ccc(OC)c(S(=O)(=O)Nc2ccc(C(C)=O)cc2)c1,-3,-9,-2.5,10,2,-1.3%[38.3 µM],16%
Cc1ccc(NC(=O)C(=O)NCCN2CCN(Cc3ccc([N+](=O)[O-])cc3)CC2)cc1,6,-15,-1.8,-10,8,18%,-1%
NC(=O)c1ccc(NC(=O)COC(=O)c2c3c(nc4ccccc24)/C(=C\c2ccc4c(c2)OCO4)CCC3)cc1,-17,6,?,-20,-5,-2.6%,10%
Cc1ccc(OCC(=O)NC(C)c2ccccc2)cc1 (stereo not given),?,-21,-0.4,·,11,-0.6%,14%
COC(=O)Cc1c(C)c2ccc(OCC(=O)N3CCOCC3)cc2oc1=O,5,9,2.7,-2,10,-0.1%,27%
Cc1cc(C)c2c(c1)-c1c(ssc1=S)C(C)(C)N2C(=O)CSc1nncn1C,-16,-18,-13,-67*,-67*,-2.5%,50µM*
O=C(CSc1ccc(Cl)cc1)Nc1ccc(NC(=O)c2ccco2)cc1,-9,-4,-0.1,4,5,·,-1%
CN(C)c1ccc(N2C(=O)CC(c3ccccc3)CC2=O)cc1,-4,-7,-6.2,2,2,1.8%,16%
O=C(NC(=S)Nc1ccccc1Br)C1CCCC1,-2,-9,-5.8,-1,-1,5.1%,0%
COc1cccc(C2c3c(-c4ccccc4O)n[nH]c3C(=O)N2Cc2ccco2)c1 (stereo not given),4,-10,-2.9,-4,-14,0.5%,-7%
CSCCC(NS(=O)(=O)c1ccc(C)cc1C)C(=O)Nc1cccnc1 (stereo not given),·,-22,0.9,6,3,-0.7%,·
C=CCNC(=O)C1CCN(S(=O)(=O)c2ccc3ccccc3c2)CC1,-6,-5,-0.1,3,13,-0.3%,7%
CCC(CC)c1nnc(NC(=O)COc2ccc3c(C)cc(=O)oc3c2)s1,-4,-5,-0.4,-8,-1,1.4%[38.3 µM],5%
C=COCCNC(=O)C1CC(=O)N(c2ccc(C)cc2)C1 (stereo not given),2,-7,-3.7,2,9,1.9%[38.3 µM],14%

# Reprinted at random: 4 entries already listed.
SMILES,TRPV1 PAM,D2 PAM,D2 agonist,CtBP-E1A inh,Six1-Eya2 blk,PINK1 modulator,Sfp PPTase inh
C=COCCNC(=O)C1CC(=O)N(c2ccc(C)cc2)C1 (stereo not given),2,-7,-3.7,2,9,1.9%[38.3 µM],14%
CSCCC(NS(=O)(=O)c1ccc(C)cc1C)C(=O)Nc1cccnc1 (stereo not given),·,-22,0.9,6,3,-0.7%,·
COc1cccc(C2c3c(-c4ccccc4O)n[nH]c3C(=O)N2Cc2ccco2)c1 (stereo not given),4,-10,-2.9,-4,-14,0.5%,-7%
O=C(NC(=S)Nc1ccccc1Br)C1CCCC1,-2,-9,-5.8,-1,-1,5.1%,0%

# Some of these compounds in order of their number in CtBP-E1A inh, rising:
mol	CtBP-E1A inh
Cc1cc(C)c2c(c1)-c1c(ssc1=S)C(C)(C)N2C(=O)CSc1nncn1C	-67*
COc1cccc(C2c3c(-c4ccccc4O)n[nH]c3C(=O)N2Cc2ccco2)c1 (stereo not given)	-4
COC(=O)Cc1c(C)c2ccc(OCC(=O)N3CCOCC3)cc2oc1=O	-2
O=C(NC(=S)Nc1ccccc1Br)C1CCCC1	-1
CN(C)c1ccc(N2C(=O)CC(c3ccccc3)CC2=O)cc1	2
O=C(CSc1ccc(Cl)cc1)Nc1ccc(NC(=O)c2ccco2)cc1	4
CSCCC(NS(=O)(=O)c1ccc(C)cc1C)C(=O)Nc1cccnc1 (stereo not given)	6

# Following part:
SMILES,TRPV1 PAM,D2 PAM,D2 agonist,CtBP-E1A inh,Six1-Eya2 blk,PINK1 modulator,Sfp PPTase inh
CCOC(=O)C(CC)n1cnc2c(nnn2-c2ccccc2)c1=O (stereo not given),9,-4,6.2,5,5,3.0%,9%
O=C(C1COc2ccccc2O1)N1CCN(c2ccc([N+](=O)[O-])cc2)CC1 (stereo not given),·,8,-2.1,0,-9,2.4%,·
O=C1[C@H]2C(c3ccccc3)=NN(c3ccccc3)[C@H]2C(=O)N1c1ccccc1,8,-5,-2.2,64,48,-0.5%,16%
O=C(CSc1nc(N2CCOCC2)nc(N2CCOCC2)n1)Nc1cccc(C(F)(F)F)c1,11,-15,-1.3,9,-9,9.2%,22%
CCOC(=O)C1CCN(S(=O)(=O)c2ccc3c(c2)CC(C)N3C(=O)C2CC2)CC1 (stereo not given),-4,-11,-7.5,21,20,-0.4%,19%
COc1cccc(CNC(=O)CCNS(=O)(=O)c2ccc3[nH]c(=O)oc3c2)c1,15,-4,-4.6,7,1,-0.4%,9%
C=CCN1C(=O)C2(NNc3ccccc3O2)c2ccccc21 (stereo not given),10,16,-1.2,-21,-14,2.5%,?
COc1ccc(-c2coc3c(C(=O)Nc4cccc(C(C)=O)c4)cccc23)c(C)c1,·,-4,-3.2,-1,-2,3.7%,·
O=C(CN1CCOCC1)Nc1ncc(Br)cc1Br,0,-15,-1.7,7,3,-1.9%,4%
COc1ccc(C(=O)n2nc(-c3ccc(C)cc3)nc2N)cc1OC,2,-13,-1.6,6,5,11%,-2%
